Screens deposited in PubChem by National Center for Advancing Translational Sciences (NCATS).
HSD17B inh = qHTS Assay for Inhibitors of HSD17B4, hydroxysteroid (17-beta) dehydrogenase 4; actives 7.6% (n = 75,000); Potency, µM (titrated, usually from 57.1 µM), without a hit: top-dose activity change, negative = inhibition, actives largely listed as inhibitors; 3-hydroxyacyl-CoA dehydrogenase type-2 (Homo sapiens), Q99714; recombinant HSD17B10, NADH fluorescence kinetic; many of its hits are not listed in these tables; active means well fitted inhibition curve with a large enough effect; inconclusive means small, poorly fitted or top-dose-only effect; inactive means no such curve, though single readings can be large or run the other way;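 further: the protocol describes HADH2 (HSD17B10) and not the HSD17B4 of the title; nearly all actives have a fitted effect of over 70% in size; most hits overshoot -100% by far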
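His-tagged E. coli-expressed HADH2 at 20 nM in 100 mM Tris-HCl pH 9.0 with 0.01 % Tween-20, preincubated 15 min with compound at room temperature. Reaction with 1 mM NAD+ and 90 uM beta-hydroxybutyryl coenzyme A; NADH fluorescence (360/450 nm) read kinetically over 4 min, last minus first point.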
Starred values were filed as active, the others as inactive; [ ] = dose if it differs, or a comment. On the % scale 0 is the no-effect control and ±100 the full control effect; potency means the concentration at half of the fitted maximal effect.

For Cc1ccc(-n2c(N)c(C(=O)N3CCCCC3)sc2=S)cc1 the results were HSD17B inh -23%.
For COc1cc2c(C(=O)NCc3ccccn3)cn(C)c(=O)c2cc1OC the results were HSD17B inh -7%.
COCC(=O)N1CCC2(CC1)CN(Cc1ccc(C#N)cc1)C2 was read as HSD17B inh 4%.
CCN(Cc1cc2cc(C)ccc2[nH]c1=O)C(=O)c1cccc(OC)c1 was read as HSD17B inh 25µM*.
`Cc1nnc(NC(=O)C2CCN(c3nnnn3-c3ccccc3)CC2)s1` gave HSD17B inh 19%.
Screening CCCCN1C(=O)C(O)(CC(=O)c2c(C)n[nH]c2C)c2cc(Br)ccc21 (stereo unspecified) returned HSD17B inh 8%.
CC(=O)c1cnc(Nc2nc(C)c3cc(C)ccc3n2)nc1C was read as HSD17B inh -3%.
Cc1ccc(S(=O)(=O)N(CC(O)CN2CCCC2)c2ccccc2)cc1 (stereo unspecified) was read as HSD17B inh 11%.
For OC(COc1ccc2ccccc2c1Br)Cn1ccnc1 (stereo unspecified) the results were HSD17B inh -14%.
For C[N+](C)(C)[C@H](Cc1c[nH]c(=S)[nH]1)C(=O)O the results were HSD17B inh 1%[11.4 µM].
Cc1nn(CC(=O)Nc2ccc(C(=O)N3CCCC3)cc2)c(=O)c2ccccc12 was read as HSD17B inh 0%.
`COc1nc(NCC(C)C)nc(Oc2ccc(=O)n(-c3ccccc3)n2)n1` gave HSD17B inh -2%.
Screening Cn1c(C(C#N)C2=C(Cl)C(=O)N(c3ccccc3)C2=O)nc2ccccc21 (stereo unspecified) returned HSD17B inh -15%.
CC(=O)[C@@H]1[C@H]2[C@H](C(=O)[C@H]3OC[C@@H]2O3)[C@H]2C=Cc3ccccc3N21 was read as HSD17B inh 40µM*.
O=C(O)/C=C/C=C/c1ccccc1 was read as HSD17B inh -2%.
CCOC(=O)Cc1csc(NC(=O)CSc2nnc(-n3nc(C)cc3C)c3ccccc23)n1 was read as HSD17B inh -18%.
Screening Brc1ccc(Oc2nnnn2-c2ccccc2)cc1 returned HSD17B inh -4%.
Screening Cc1cccn2cc(CNc3ccccc3)nc12 returned HSD17B inh 1%.
COc1ccccc1-c1noc(-c2ccccc2C(=O)N2CCOCC2)n1 was read as HSD17B inh 3%.
Screening Cc1cc2nnc(SC3CCOC3=O)n2c2ccccc12 (stereo unspecified) returned HSD17B inh 136%[activator].
For Nc1nc(-c2cccnc2)nn1C(=O)c1ccco1 the results were HSD17B inh 1%.
`COc1ccc2[nH]c(=O)c(CN(Cc3cccnc3)C(=O)Nc3ccccc3)cc2c1` gave HSD17B inh inconclusive.
For CN(C)C(=O)Nc1ccc(F)cc1F the results were HSD17B inh 2%.
For CN(C)Cc1cc(C(C)(C)C)cc(CN(C)C)c1O the results were HSD17B inh 4%[11.4 µM].
For CCOC(=O)N1CCN(C(=O)C2CC(c3ccc(F)cc3)=NO2)CC1 (stereo unspecified) the results were HSD17B inh 3%.
Screening CCOC(=O)N1CCN(C(=O)CN(Cc2ccc(Cl)cc2)S(C)(=O)=O)CC1 returned HSD17B inh 1%.
`CCOC(=O)N1CCC(NC(=O)CCC(=O)N2CC(C)Oc3ccc(C)cc32)CC1` (stereo unspecified) gave HSD17B inh 0%.
CCCOc1ccc(Cc2nn3c(=O)/c(=C/c4ccco4)sc3nc2=O)cc1 was read as HSD17B inh inconclusive.
For Cc1ccc(Cl)cc1NC(=O)Cn1cccc1 the results were HSD17B inh -1%.
For O=C(c1ccco1)N1CCC[C@@]2(CCN(c3ccccc3)C2)C1 the results were HSD17B inh -6%.
`O=C(COC(=O)CCc1c[nH]c2ccccc12)NC1CCS(=O)(=O)C1` (stereo unspecified) gave HSD17B inh 3%.
`CCN(CC)C(=O)c1cncc(C(=O)N(CC)CC)c1-c1ccccc1` gave HSD17B inh 2%.
For COc1ccc(OC)c(NC(=O)C2CCCN2C(=O)OCc2ccccc2)c1 (stereo unspecified) the results were HSD17B inh 3%.
Screening O/N=C1/C2C3CC4C5C3C1C5C1(OCCO1)C42 (stereo unspecified) returned HSD17B inh 1%.
`O=C(NCc1ccc2c(c1)OCO2)c1cccc(Cl)c1` gave HSD17B inh -3%.
`O=C(NCc1ccco1)Nc1ccc(Br)cc1` gave HSD17B inh -3%.
Cc1cccc2cc3c(nc12)SC(=NCC1CCCO1)N(Cc1ccco1)C3 (stereo unspecified) was read as HSD17B inh 32µM*.
For CCCn1c(=O)c2ccccc2n2c(SCCOc3ccccc3)nnc12 the results were HSD17B inh -7%.
Screening Cc1cc(NCc2ccc(F)cc2Cl)n2nnnc2n1 returned HSD17B inh inconclusive.
CC(=O)c1ccc(C2C=CC(Oc3ccc(-c4ccccc4)cc3)C(CO)O2)cc1 (stereo unspecified) was read as HSD17B inh -2%[11.4 µM].
Screening O=C(NC1CCCC1)C1CCCN1C(=O)Nc1ccccc1Cl (stereo unspecified) returned HSD17B inh -6%.
For CC(C)c1nnc(NC(=O)CCS(=O)(=O)c2nc(-c3cccs3)cc(C(F)(F)F)n2)s1 the results were HSD17B inh 2%.
Screening CC(=O)N1CCCc2cc(S(=O)(=O)Nc3ccc4c(c3)OCO4)ccc21 returned HSD17B inh -7%.
For Cc1noc(C)c1-c1cncnc1-n1ccnc1 the results were HSD17B inh 2%.
For CC(=O)c1cccc(NC(=O)NC(C)C2CCCO2)c1 (stereo unspecified) the results were HSD17B inh 8%.
CCOC(=O)N1CCC(NC(=O)c2cc3c(-c4ccc(OC)c(OC)c4)nn(C)c3s2)CC1 was read as HSD17B inh 13µM*.
`CC1CC(=O)C=C(O)C1C(=O)OC(C)(C)C` (stereo unspecified) gave HSD17B inh -1%.
For Cc1ccc2[nH]c(=O)c(CN(CCCN3CCOCC3)C(=O)NC3CCCCC3)cc2c1 the results were HSD17B inh -16%.
For CCc1ccc2[nH]c(=O)c(CN(CCCN3CCOCC3)C(=O)Nc3ccc(Cl)cc3)cc2c1 the results were HSD17B inh 4%.
O=C(NC1CCS(=O)(=O)C1)c1cccc(S(=O)(=O)N2CCCCC2)c1 (stereo unspecified) was read as HSD17B inh 0%.
Cc1ccc(C)c(-n2nnnc2SCC(=O)Nc2cccc(-c3nnc4n3CCCCC4)c2)c1 was read as HSD17B inh 10%.
CC(C)CCNC(=O)NC(=O)COC(=O)C1=COCCO1 was read as HSD17B inh -3%.
For CCN(c1ccccc1)S(=O)(=O)c1ccc(NCC2COc3ccccc3O2)nc1 (stereo unspecified) the results were HSD17B inh 1%.
Cc1ccc(-c2cc(C(=O)NCc3ccc4c(c3)OCO4)[nH]n2)c(O)c1C was read as HSD17B inh -7%.
`COC(=O)[C@@]1(Cc2ccc(OC)cc2)[C@H]2c3cc(C(=O)N4CCCC4)n(CCc4c[nH]c5ccc(OC)cc45)c3C[C@H]2CN1C(=O)c1ccccc1` gave HSD17B inh 4%.
Cc1cccc(CS(=O)(=O)Cc2ccc(C(=O)NCc3cccnc3)o2)c1 was read as HSD17B inh -1%.
Screening O=C(NCc1ccccn1)c1cc2ccccc2oc1=O returned HSD17B inh 32µM*.
COc1ccc(N2CCn3c2nc2c3c(=O)n(CCCc3ccccc3)c(=O)n2C)c(OC)c1 was read as HSD17B inh -24%.
For Clc1ccc(Cc2noc(Cc3ccccc3)n2)cc1Cl the results were HSD17B inh -15%.
CC(C)c1nc2oc3c(NCc4cccnc4)ncnc3c2c2c1CCC2 was read as HSD17B inh 13µM*.
`Cc1cc(C)n(-c2nc(C)nc(NCc3ccccc3)n2)n1` gave HSD17B inh 10%.
For CC1CCCN(CCCNC(=O)C2CC(=O)N(c3ccc(F)c(Cl)c3)C2)C1 (stereo unspecified) the results were HSD17B inh 14%.
Screening CC(=O)Nc1cc(NC(=O)C2C3C=CC(C3)C2C(=O)O)ccc1Cl (stereo unspecified) returned HSD17B inh -2%.
`O=C(NC12CC3CC(CC(C3)C1)C2)N1CCC(O)(c2ccc3c(c2)OCO3)CC1` gave HSD17B inh 21%.
Screening COC(=O)c1ccccc1S(=O)(=O)N1CCC(c2nc3ccccc3o2)CC1 returned HSD17B inh 3%.
Screening O=c1cc(-c2ccccc2O)oc2ccc3ccccc3c12 returned HSD17B inh 0%.
Screening Cc1ccc(S(=O)(=O)Cn2nnnc2CN2CCN(Cc3ccc4c(c3)OCO4)CC2)cc1 returned HSD17B inh 5%.
For COC(=O)C1(C)NC(c2ccc(O)cc2)C2C(=O)N(c3ccc4c(c3)OCCO4)C(=O)C21 (stereo unspecified) the results were HSD17B inh 4%.
For O=C(Cn1c(-c2ccccc2)noc1=O)NCc1ccccc1 the results were HSD17B inh 4%.
Screening c1ccc(CCc2nc(-c3ccccn3)no2)cc1 returned HSD17B inh 1%.
`O=C(NCc1ccco1)C1CCCN(S(=O)(=O)c2cccc3cccnc23)C1` (stereo unspecified) gave HSD17B inh 0%.
For C=CCn1c(SCc2ccc3nonc3c2)nnc1-c1cccs1 the results were HSD17B inh -1%.
For CCOc1ccc(N2C(=O)CC(N3CCN(c4ccccc4F)CC3)C2=O)cc1 (stereo unspecified) the results were HSD17B inh 10µM*.
For CC(C)n1c(=O)[nH]c2ccccc21 the results were HSD17B inh 4%.
Screening CN(Cc1ccccc1)c1nc2c(c(=O)[nH]c(=O)n2C)n1Cc1ccccc1Cl returned HSD17B inh -2%.
For CCOC(=O)NCC(C#CCN(CC)CC)N(CC)CC (stereo unspecified) the results were HSD17B inh -6%.
For CC(C)(C)c1nn(-c2ccccc2)c2[nH]c(=O)c(CNCc3ccco3)cc12 the results were HSD17B inh 32µM*.
Screening Cc1ccccc1N(CC(=O)Nc1ccc(F)cc1)S(C)(=O)=O returned HSD17B inh -2%.
`O=C(Nc1nnc(CC(=O)N2CCCC2)s1)c1cnccn1` gave HSD17B inh -1%.
Screening Cc1cccc(N(C)C(=O)c2coc(=O)c3ccccc23)c1 returned HSD17B inh 4%.
CC(C)OCCCNS(=O)(=O)c1ccc2c(c1)OCCO2 was read as HSD17B inh 6%.
Screening COc1cccc(C2C(C(=O)c3cc4cccc(OC)c4o3)=C(O)C(=O)N2c2cc(C)on2)c1OC (stereo unspecified) returned HSD17B inh 2%.
Screening CC(=O)OC1CC2C(C)(C)C(O)CC[C@@]2(C)C2CC[C@@]3(C)C(c4ccoc4)OC(=O)C4O[C@@]43[C@]12C (stereo partly specified) returned HSD17B inh 4%.
`O=C(NC1CCCC1)c1c[nH]c2ccc(F)cc2c1=O` gave HSD17B inh 3%.
For CC#CCOCC/C=C1/c2ccccc2C(OC)C1C (stereo unspecified) the results were HSD17B inh 4%[11.4 µM].
`CC(NC(=O)COc1cc(=O)n(C)c2ccccc12)c1ccc2c(c1)OCCO2` (stereo unspecified) gave HSD17B inh 1%.
COc1cccc(OCCn2c(C)c(/C=N/n3cnnc3)c3ccccc32)c1 was read as HSD17B inh -3%.
For CCOC(=O)c1sc(NC(=O)CSc2nc3c(cc2C#N)CCCCCC3)c(C#N)c1C the results were HSD17B inh -1%.
CCn1ncc(C2=NOC(C(=O)NCc3ccc(Cl)cc3)C2)c1C (stereo unspecified) was read as HSD17B inh 5%.
`COCCC(=O)N(Cc1ccc2c(c1)OCO2)C(C(=O)NC1CCCCC1)c1ccncc1` (stereo unspecified) gave HSD17B inh 12%.
`O=C(NC1CCCC1)c1ccc(COCC(F)(F)F)o1` gave HSD17B inh 1%.
Screening O=C(CN1C(=O)COc2ccccc21)NCCCN1CCN(Cc2ccccc2)CC1 returned HSD17B inh 4%.
Screening CCN1CCN(Cc2nc(N)nc(Nc3ccc(C)c(C)c3)n2)CC1 returned HSD17B inh 3%.
For CNC(=O)c1ccc(N(Cc2ccccc2C)S(C)(=O)=O)cc1 the results were HSD17B inh -11%.
Screening O=C(C1CCC(CNS(=O)(=O)c2cccs2)CC1)N1CCCCC1 (stereo unspecified) returned HSD17B inh -14%.
`O=C(Nc1sc2c(c1C(=O)O)CCCC2)c1cccs1` gave HSD17B inh -13%.

Not all compounds are listed; the hit share may differ from the screen's.
